# Compound activity as filed in PubChem BioAssay.
# Sa RN4220 lethal = kills Staphylococcus aureus RN4220; S. aureus RN4220 growth, OD600, 16 h; inhibition, % (test concentration not listed); 330,000 compounds, 0.33% hits;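 active = z-score of -3 or lower and OD600 up to 0.18 on both plates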;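 also: plate controls were untreated cells for no effect and reference antibiotic for full effect; stock transfer was 100 nL into about 80 µL; one replicate is shown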
# PrP UTR inh = suppresses PrP 5' UTR mRNA reporter expression. cell-based PrP 5' UTR mRNA reporter, plate reader. inhibition, % (test concentration not listed). 340,000 compounds, 0.35% hits. AID 488862;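 active = every replicate at 50% or more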;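 also: 0 = median of the neutral control wells; tested in H4 reporter cells; numbers are from one replicate; inactives centre near -14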
# Sa ugtP lethal = growth inhibition of S. aureus ugtP deletion strain | growth inhibition, % (no concentration beside the values) | S. aureus RN4220 ugtP deletion, OD600 growth, 16 h; some inactives read as strong as hits | 330,000 compounds, 0.54% hits | AID 1259309;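 active = z-score under -3 and OD600 up to 0.15 on both plates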;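 also: plate controls were untreated wells for no effect and antibiotic for full effect; wells of about 80 µL received 100 nL stock; the first replicate is given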
# Autofluor counter = compound fluorescence in toxin protease inhibitor counterscreen | fluorescence intensity (no concentration beside the values) | 360,000 compounds, 3.1% hits | compound autofluorescence counterscreen, microsphere flow cytometry; hits give high values;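 active = at least 3 SD above the mean of all compounds, about 16000 in these data; inconclusive = too few beads counted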;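 also: 100 nL of 1 mM stock went into each well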
# Mtb hypoxia inh = inhibitors of hypoxia-regulated fluorescent reporter in Mycobacterium tuberculosis; M. tuberculosis hypoxia-regulated fluorescent reporter, fluorescence; fluorescence inhibition, % (test concentration not listed); 300,000 compounds, 0.1% hits; AID 1159583;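 active = 35 to 45% if threefold the growth effect, above 45% if 1.5-fold the growth effect; inactive = the rest, general growth blockers included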;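 also: wells of about 50 µL received 100 nL stock; 0% = vehicle wells and 100% = reference inhibitor wells; whole bacteria with a GFP reporter of the hypoxia response; strong numbers were not always called active; many hits fall short of the cut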
# BJeLR lethal = BJeLR cell viability loss | BJeLR (HRASV12) viability, CellTiter-Glo ATP luminescence, 48 h; reference of the scale not given here | inhibition, % (no concentration beside the values) | 300,000 compounds, 0.17% hits | AID 1554;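 active = replicate mean above 50%; inconclusive = above 50% but judged a plate artefact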;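 also: 50 nL library stock added to about 25 µL; numbers are from one replicate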
# Mtb hypoxia inh growth = second read-out of Mtb hypoxia inh, no call of its own (marks repeat the call); growth inhibition, %; measured here: M. tuberculosis growth (absorbance);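 0% = vehicle and 100% = reference antibiotic; read after six days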
# Active calls of the source: *; ? = inconclusive; / = not tested or not shown.
SMILES,Sa RN4220 lethal,PrP UTR inh,Sa ugtP lethal,Autofluor counter,Mtb hypoxia inh,Mtb hypoxia inh growth,BJeLR lethal
Cc1cccc(-c2nn(-c3ccccc3)cc2C(=O)Nc2cccc(S(=O)(=O)NC3=NCCC3)c2)c1,2.8,-27,-8,6459,10,-4,0
CCn1c2ccccc2c2cc(N)ccc21,-1.7,-15,-18,2970,0,5,-7
CN(C)C=Nc1nc(Sc2ccc(C(F)(F)F)cc2[N+](=O)[O-])n[nH]1,-0.6,/,-6,/,-6,1,/
Cc1ccc(COc2ccc(/C=N/NC(=O)c3nnn(-c4nonc4N)c3COc3ccc(F)cc3)cc2)cc1,/,-43,/,4769,/,/,10
CCOC(=O)C(NC(=O)CC)(Nc1nc2c(s1)CCCC2)C(F)(F)F (centres undefined),-2.4,-8,-5,3727,0,-7,-16
CCCC[C@@H]1C=C(C(=O)O)[C@H](c2ccc(Br)cc2)N1S(=O)(=O)c1ccc(C)cc1,19,-12,0,2983,1,0,/
CCN(C(=O)c1ccco1)c1nc(CC(=O)Nc2ccc(Cl)cc2)cs1,2.9,-13,-2,10896,13,4,-14
COc1ccc2c(Cl)c(C(=O)NCCCn3ccnc3)sc2c1,5.0,-27,19,8402,-5,-3,-10
Cc1cccc(C)c1NC(=O)COc1ccccc1C(=O)Nc1ccc(Br)cn1,3.9,-24,0,9127,2,5,-5
COc1cc(OC)cc(-c2nc3ccccc3c(=O)o2)c1,-7.2,-19,-3,2473,18,14,-1
CCN1CCN(S(=O)(=O)c2ccc(Cl)c(C(=O)Nc3nnc(C)s3)c2)CC1,-1.1,-17,3,?,3,2,12
COc1cc(/C=C/c2noc(-c3ccccc3O)n2)ccc1OC(C)=O,-0.8,-33,-1,3456,11,-4,3
S=C(c1ccc(-c2ccc(Cl)c(Cl)c2)o1)N1CCOCC1,7.9,-120,-21,10537,4,5,2
CCn1c(SCC(=O)Nc2nc(-c3ccccc3)cs2)nnc1-c1ccccc1O,-4.2,-19,0,2714,/,/,9
Cc1nnc(SC(C)C#N)n1-c1ccccc1 (centres undefined),4.5,-22,2,4233,11,12,1
COCCn1nnnc1C(C(C)C)N(Cc1cccnc1)Cc1ccccc1Cl (centres undefined),13,-9,4,3246,11,14,-10
O=C(NOCc1ccccc1)OCc1ccccc1,7.7,-23,16,2881,-1,-2,/
COc1cccc(C2NC(=O)c3ccccc3O2)c1OC (centres undefined),2.6,-18,0,18893*,3,-4,5
COc1ccc([C@@H]2[C@@H]3C(=O)N(C(C)(C)C)C(=O)[C@@H]3[C@]3(Cc4ccccc4)C(=O)N(c4cccc(Br)c4)C(=O)N23)cc1,/,-20,/,4354,/,/,12
CN(C)S(=O)(=O)c1cc(NC(=O)CN2CCN(c3ccccc3)CC2)ccc1Cl,4.9,-32,6,2162,6,11,9
Cc1ccc(C(=O)C(C)OC(=O)CN2C(=O)NC3(CCCC3)C2=O)cc1C (centres undefined),0.7,-17,7,?,-2,2,-8
Cc1ccc(CN2CC(C(=O)Nc3nnc(SCc4c(Cl)cccc4Cl)s3)CC2=O)cc1 (centres undefined),0.4,-24,-22,1979,6,0,5
CC(C)COP(=O)(c1ccc(N(C)C)cc1)C(O)c1ccc(N(C)C)cc1 (centres undefined),1.9,-32,2,3551,-14,6,-6
CCCNC(=O)C(Cc1ccccc1C)NC(=O)c1ccc(C#N)cc1 (centres undefined),5.9,-16,-2,4337,7,8,/
CCOc1ccc(CCNC(=O)c2cc(-c3ccccc3)c(N3CCOCC3)s2)cc1,5.5,-23,1,6827,/,/,11
# New compounds follow:
SMILES,Sa RN4220 lethal,PrP UTR inh,Sa ugtP lethal,Autofluor counter,Mtb hypoxia inh,Mtb hypoxia inh growth,BJeLR lethal
COc1ccc(C2N3CC4(C)CN2CC(C)(C3)C4O)cc1OC (centres undefined),1.2,-11,3,3784,/,/,1
CSCCC(NC(=O)COc1ccccc1)C(=O)N1CC(C)CC(C)C1 (centres undefined),-0.3,-9,2,4084,9,5,/
COC(=O)c1cn(NC(=O)C2CCC(C)CC2)c(=O)c2ccccc12 (centres undefined),1.1,-16,-7,8637,1,3,0
CC(C)C(=O)Nc1ccc(C(=O)NNC(=S)NC(=O)c2cccs2)cc1,20,-28,2,10569,8,4,-1
O=C(c1ccc2nc(Cc3cccc(Cl)c3)oc2c1)N1CCOCC1,-0.3,-53,-3,4883,9,4,0
O=S(=O)(c1ccccc1)N1c2cc(Cl)ccc2Oc2nc3ccccc3nc21,-1.6,-15,-5,3652,/,/,4
Cc1cc(C)c(NC(=O)CN2C(=O)NC3(CCCCC3)C2=O)c(C)c1,1.6,-27,4,20379*,-2,1,-1
O=C(COc1ccc(Cl)cc1Cl)Nc1nc2n(n1)C(c1ccccc1)CC(=O)N2 (centres undefined),2.6,-20,-5,7697,-5,-7,-17
O=C(NNC(=O)c1cccs1)c1ccc(Br)o1,5.9,-24,3,3093,-1,5,/
Cc1ccc(-n2c(C)cc(-c3csc(N)n3)c2C)cc1,7.5,47,-19,5684,4,6,-2
Brc1ccc2ncnc(NCc3ccccc3)c2c1,7.3,15,-16,4936,/,/,10
Cc1ccc(S(=O)(=O)N(CC(=O)Nc2cccnc2)c2ccc(Br)cc2)cc1,2.7,-8,-18,6250,1,6,5
CC(=O)Cc1nsc(NC(=O)c2ccc(-c3cc(Cl)ccc3Cl)o2)n1,7.1,-5,-3,3480,-3,8,6
CCc1nc2sc(C(C)=O)c(N)c2c2c1CCCC2,5.0,/,1,5820,10,4,-6
Cc1cc(C)cc(NC(=O)c2cc(C)n(Cc3cccs3)c2C)c1,2.4,-91,7,5012,16,6,-5
CCC1(CC)SCCNC1=O,0.5,-1,1,3906,6,0,/
Oc1[nH]c2ccccc2c1N=Nc1ncnc2c1oc1ccccc12,15,/,-3,/,5,5,6
CCOC(=O)c1ccc(COC(=O)CNC(=O)CNC(=O)Cc2ccccc2)cc1,3.1,-29,3,5526,5,5,-9
Cc1ccc(-n2ncc3c(=O)n(-c4ccc(C)c(C)c4)c(-c4ccco4)nc32)cc1,-5.1,-13,-17,9163,1,12,-7
CN(C)S(=O)(=O)c1cccc(NC(=O)CN2C(=O)NC3(CCc4ccccc4C3)C2=O)c1 (centres undefined),2.1,-25,6,3715,2,3,-5
CC1CCCC(=NNC(=S)NCc2ccccc2)C1 (centres undefined),2.7,/,-1,/,2,6,/
Cc1ccc(C)c(OCc2cc(C(=O)N(C)Cc3ccccn3)no2)c1,5.7,-20,3,5867,11,6,-6
CC(=O)c1ccc(OCCOc2ccc(Cl)c3cccnc23)cc1,-0.1,-6,0,4151,3,6,6
COc1ccc(N(CC(=O)NN=Cc2cccs2)S(=O)(=O)c2ccc(OC)c(OC)c2)cc1,-2.9,/,-1,/,-2,0,/
O=C1CCNCCN1[C@H](CO)Cc1ccccc1,/,-19,/,4219,/,/,-14
# Following part.
SMILES,Sa RN4220 lethal,PrP UTR inh,Sa ugtP lethal,Autofluor counter,Mtb hypoxia inh,Mtb hypoxia inh growth,BJeLR lethal
COC(=O)c1ccc(NC(=O)CCCN2C(=O)NC(C)(C)C2=O)cc1,7.4,-9,13,?,7,0,/
CCCNC(=O)[C@H](C)NC(=O)c1ccc(Br)cc1,1.1,-20,4,4428,11,5,8
CC(=O)Oc1c(C(C)C)cc(N(C(C)=O)c2ccccc2)cc1C(C)C,8.1,-9,6,6612,-10,5,-2
Cc1cccc(C(=O)NCC(=O)OCC(=O)N(C)CC(=O)Nc2ccc(F)cc2)c1,1.7,-17,2,/,-7,4,3
Cc1cccc(NC(=O)C2CCN(S(=O)(=O)c3cccc4nsnc34)CC2)n1,-1.5,-11,1,3930,6,2,2
CCN(C(=O)COC(=O)CNS(=O)(=O)c1ccc(SC)c([N+](=O)[O-])c1)C1CCCCC1,/,7,/,?,/,/,-5
O=C(CN1CCN(CC(=O)Nc2ccccc2Cl)CC1)Nc1ccc2c(c1)OCCO2,1.1,-12,-3,2879,/,/,-3
COc1cc(C(=O)OCC(C)=O)ccc1OCc1c(C)noc1C,2.3,-8,5,4002,10,5,-2
CCCn1c(=O)c2ccccc2n2c(SCc3cc(=O)oc4ccc5ccccc5c34)nnc12,5.3,-11,0,8175,3,-2,-9
CSc1ccc(CN(C)C(=O)COc2ccc(C(=O)c3ccccc3)cc2)cc1,-1.8,8,5,3704,0,7,-15
O=C(/C=C/Sc1ccccc1)c1ccc(Cl)cc1,7.2,-57,12,11070,/,/,12
Cc1[nH]c(=O)c(C(=O)c2cc(Cl)ccc2O)cc1C(=O)O,6.9,-12,11,4635,5,0,0
O=C(c1ccco1)N1CCN(C2=NS(=O)(=O)c3ccccc32)CC1,6.4,-13,2,3015,9,2,-5
COc1cc(OC)cc(C(=O)N[C@H](C(=O)NC2CCCc3ccccc32)C(C)C)c1 (some centres undefined),1.4,-11,5,3881,0,-5,/
COc1ccc(-c2ccc(-c3nc4c(c(=O)[nH]c(=O)n4Cc4ccccc4)n3C)o2)c([N+](=O)[O-])c1,7.9,3,-8,2020,11,15,3
CCc1nnc(NC(=O)c2ccc3ncsc3c2)s1,3.6,-53,-4,5878,6,-3,1
CSC1=C(C#N)C(c2ccc(C)s2)CC(=O)N1 (centres undefined),5.6,/,2,11079,1,3,4
COc1ccc(-n2c(C)cc(/C=C3/SC(=S)N(C)C3=O)c2C)cc1,3.7,21,-3,4148,2,13,-10
CCNC(=S)N(CCc1c(C)[nH]c2ccccc12)Cc1cccnc1,-4.5,-9,-4,3938,18,10,-3
CC(=O)Nc1ccc2c(c1)C(=Nc1ccc(C)cc1)c1ccccc1-2,-1.5,-24,1,3878,6,4,/
CCOc1ccc(-n2c(SCC(=O)NC(C)CC)nc3n[nH]c(C)c3c2=N)cc1 (centres undefined),0.1,0,4,4315,/,/,2
CC1CCN(S(=O)(=O)c2ccc(C(=O)N3CCCC(C(F)(F)F)C3)cc2)CC1 (centres undefined),2.0,-18,1,5409,10,-1,4
COc1ccc(C2(C)CC(C)(C)Nc3ccccc32)cc1 (centres undefined),-3.8,-16,5,3687,-11,7,-3
O=C(NS(=O)(=O)Oc1ccc(Cl)cc1)OC[C@@H]1CCCN2CCCC[C@H]12,4.2,-10,-2,2375,/,/,-3
COCCCNC(=O)c1ccc(C(=O)NCCCOC)cc1,1.3,-27,2,22526*,4,12,1

# Of the compounds above, five contain fluorine.
SMILES,Sa RN4220 lethal,PrP UTR inh,Sa ugtP lethal,Autofluor counter,Mtb hypoxia inh,Mtb hypoxia inh growth,BJeLR lethal
CN(C)C=Nc1nc(Sc2ccc(C(F)(F)F)cc2[N+](=O)[O-])n[nH]1,-0.6,/,-6,/,-6,1,/
Cc1ccc(COc2ccc(/C=N/NC(=O)c3nnn(-c4nonc4N)c3COc3ccc(F)cc3)cc2)cc1,/,-43,/,4769,/,/,10
CCOC(=O)C(NC(=O)CC)(Nc1nc2c(s1)CCCC2)C(F)(F)F (centres undefined),-2.4,-8,-5,3727,0,-7,-16
Cc1cccc(C(=O)NCC(=O)OCC(=O)N(C)CC(=O)Nc2ccc(F)cc2)c1,1.7,-17,2,/,-7,4,3
CC1CCN(S(=O)(=O)c2ccc(C(=O)N3CCCC(C(F)(F)F)C3)cc2)CC1 (centres undefined),2.0,-18,1,5409,10,-1,4

# Remaining list, next part.
SMILES,Sa RN4220 lethal,PrP UTR inh,Sa ugtP lethal,Autofluor counter,Mtb hypoxia inh,Mtb hypoxia inh growth,BJeLR lethal
O=C(CN1CCN(C(=O)c2ccco2)CC1)Nc1cccc(S(=O)(=O)N2CCCC2)c1,3.9,-8,5,3095,3,-6,/
COc1ccc(CN2C(=O)N(c3ccc(OC)cc3)C(=O)C2CC(=O)Nc2ccccc2)cc1 (centres undefined),-5.9,-11,-6,6472,6,7,8
CC(C)c1nc2oc3c(NCCO)ncnc3c2c2c1COC(C)(C)C2,1.0,-9,3,3544,1,-2,-11
CSc1ncc(Cl)c(C(=O)Nc2cccc3ccccc23)n1,/,-20,/,2480,/,/,-2
CC(=O)c1c(C)n([O-])c2cc(C)ccc2[n+]1=O,9.3,-20,11,3415,/,/,-7
Cc1cccc(C)c1NC(=O)CNC(=O)c1ccc(N2CCCC2=O)cc1,4.8,-8,0,3792,11,-2,/
O=C(CNc1ccc2c(c1)OCO2)N/N=C\c1cn(Cc2ccccc2)c2ccccc12,/,-22,/,10512,/,/,4
CCOC(=O)c1c(NC(=O)CSc2nccc(=O)[nH]2)sc(C)c1C,3.8,-8,-14,4555,-4,-5,9
Cc1cccnc1NC(=O)c1ccc(NS(=O)(=O)/C=C/c2ccccc2)cc1,1.8,-7,8,6025,7,7,11

# Not a hit list; about 4% have a hit in one of these screens.
